Compound activity deposited in PubChem BioAssay by National Center for Advancing Translational Sciences (NCATS).
RE007 growth inh – less growth of the S. pombe RE007 Vpr strain. S. pombe RE007 Vpr strain, BacTiter-Glo ATP luminescence, 24 h; control for the full effect not named in the record. Potency, µM (doses to about 92.2 µM), for the others: top-dose activity change, negative = less growth. actives 0.21% (n = 360,000). AID 651644; active = well fitted falling curve with a large enough effect; inconclusive = small, poorly fitted or top-dose-only effect; inactive = no such curve, though single readings can be large or run the other way;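 further: on the % scale 0 is the no-effect control and ±100 the full control effect; nearly all actives have a fitted effect of over 50% in size; the assay follows cell death caused by Vpr and the record does not say whether a fall means rescue or toxicity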
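Fission yeast strain RE007, carrying one chromosomally integrated HIV-1 vpr copy, was seeded at OD 0.01 in PMG+AL medium with 23 nL pinned compound. After 24 h at 30 °C and 99% humidity, viability was read by BacTiter-Glo luminescence.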
StopGo reporter – FMDV 2A StopGo reporter, luciferase signal; human cells with a luciferase reporter of 2A StopGo recoding; control for the full effect not named in the record; Potency, µM (series often up to 57.9 µM), for the others: at the top dose signal change, negative = less light; actives 1.2% (n = 410,000); AID 1159524; active = well fitted falling curve with a large enough effect; inconclusive = small, poorly fitted or top-dose-only effect; inactive = no such curve, though single readings can be large or run the other way; tested in HEK293T cells; further: on the % scale 0 is the no-effect control and ±100 the full control effect; nearly all actives have a fitted effect of over 45% in size; luciferase light after 4 h
Lassa entry inh – Lassa virus entry inhibition; AID 540256; actives 1.2% (n = 300,000); Potency, µM (highest dose often 37.9 µM), without a hit: at the highest dose activity change, negative = inhibition, most hits filed as inhibitors; Lassa virus pseudotype entry inhibition, cell reporter; control for the full effect not named in the record; active means well fitted inhibition curve with a large enough effect; inconclusive means small, poorly fitted or top-dose-only effect, or effect the other way; inactive means flat fitted curve, though single readings scatter; tested in HEK293 cells; further: on the % scale 0 is the no-effect control and ±100 the full control effect; nearly all actives have a fitted effect of over 50% in size; luciferase read-out
MARV entry inh – inhibitors of Marburg virus binding or cell entry; actives 1.8% (n = 300,000); Marburg virus pseudotyped entry inhibition, cell reporter; control for the full effect not named in the record; about a third of the inactives were read at about 46 µM; Potency, µM (series often up to 37.8 µM), without a hit: at the highest dose activity change, negative = inhibition, hits mostly inhibitors; active = well fitted inhibition curve with a large enough effect; inconclusive = small, poorly fitted or top-dose-only effect, or effect the other way; inactive = flat fitted curve, though single readings scatter; tested in HEK293 cells; about a fifth of its hits are not listed in these tables; further: on the % scale 0 is the no-effect control and ±100 the full control effect; luciferase read-out
SARS PLpro yeast – inhibitors of SARS-CoV papain-like protease in yeast | actives 0.19% (n = 330,000) | S. cerevisiae expressing SARS-CoV PLpro, growth rescue; control for the full effect not named in the record | Potency, µM (series often up to 32.9 µM), without a hit: top-dose activity, positive = growth rescue; active means well fitted rising curve with a large enough effect; inconclusive means small, poorly fitted or top-dose-only effect; inactive means no such curve, though single readings can be large or run the other way; further: 0% is about no effect; nearly all actives have a fitted effect of over 55% in size; growth read by luminescence after 48 h
Cruzain inh noDet – cruzain (T. cruzi) inhibition without detergent; P25779; purified cruzain, Z-FR-AMC fluorescence, no detergent; Potency, µM, for the others: max response, negative = inhibition, usual class: inhibitors; actives 2.3% (n = 200,000);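 further: plate controls were enzyme without inhibitor for no effect and buffer without enzyme for full effect; nearly all actives have a fitted effect of over 40% in size; top concentration of the series not given in the record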
Target sequence (P25779 123-467 limits assumed): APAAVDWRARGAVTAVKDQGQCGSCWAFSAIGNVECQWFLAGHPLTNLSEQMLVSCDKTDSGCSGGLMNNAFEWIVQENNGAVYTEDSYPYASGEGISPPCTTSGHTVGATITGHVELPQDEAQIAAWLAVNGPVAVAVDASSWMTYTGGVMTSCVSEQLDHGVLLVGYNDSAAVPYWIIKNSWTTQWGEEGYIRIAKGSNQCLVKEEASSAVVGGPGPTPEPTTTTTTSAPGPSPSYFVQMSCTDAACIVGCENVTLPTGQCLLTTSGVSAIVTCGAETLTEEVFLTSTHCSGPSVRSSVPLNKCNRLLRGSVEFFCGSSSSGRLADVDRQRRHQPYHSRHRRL
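Detergent-free condition (0.00005% Triton X-100) in acetate buffer pH 5.5 with DTT. 1.5 nM enzyme and compound were pre-mixed 15 min, then 2 uM Z-FR-AMC substrate added; reaction progress from fluorescence change between first and third reads (60 s).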
NS1 function inh – blocks influenza NS1 protein function. Potency, µM (highest dose often 46.1 µM), without a hit: at the top dose activity, positive = more growth. S. cerevisiae slowed by influenza A NS1, growth recovery by OD600. actives 0.4% (n = 270,000); active means well fitted rising curve with a large enough effect; inconclusive means small, poorly fitted or top-dose-only effect; inactive means no such curve, though single readings can be large or run the other way; further: nearly all actives have a fitted effect of over 50% in size
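Recovery from NS1-induced slow growth read by OD600 in budding yeast switched to galactose assay medium (pH 6.0, -URA) at 1:100 dilution. Compound 23 nl per well; the matching strain lacking NS1 serves as control.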
Cruzain inh Det – blocks cruzain activity in presence of Triton detergent. P25779. actives 0.43% (n = 200,000). purified cruzain, Z-FR-AMC fluorescence, 0.01% Triton. Potency, µM, for inactives: max response, negative = inhibition, actives largely listed as inhibitors;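 further: plate controls were neutral wells for no effect and buffer without enzyme for full effect; nearly all actives have a fitted effect of over 40% in size; top concentration of the series not given in the record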
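Enzyme 1.5 nM, Z-FR-AMC 2 uM, NaOAc 100 mM pH 5.5, DTT 5 mM, Triton X-100 0.01%; 15 min RT compound preincubation; kinetic ex360/em450, 60 s delta.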
* hit, by the source's call; u = inconclusive; x = no result given; & = joins results of further samples; [ ] = another dose, or the depositor's remark. Unless noted, the call rests on the fitted dose curve; in most records, active means well fitted curve in the direction sought with a large enough effect; inconclusive means small, poorly fitted or top-dose-only effect, or another doubt; inactive means no such curve, though single readings can be large; an effect the other way counts as inactive or inconclusive. Potency means the concentration at half of the fitted maximal effect.

Sequence of screens: RE007 growth inh	StopGo reporter	Lassa entry inh	MARV entry inh	SARS PLpro yeast	Cruzain inh noDet	NS1 function inh	Cruzain inh Det
COc1ccc(C2CCCN2C(=O)Nc2ccc(C)c(C)c2)cc1OC (centres undefined)
    3%	-2%	x	x	-1%	-6%	-1%	-0.8%
N/C(=N\N=C\c1ccco1)SC1CC(=O)N(c2ccc(C(=O)O)cc2)C1=O (centres undefined)
    4%	-14%	-2%[46.1 µM]	8%[46.1 µM]	5%	x	x	x
COc1ccc(C)cc1NS(=O)(=O)c1cc(C)ccc1C
    -6%	16%	4%	-1%	14%	-10%	4%	-2.3%
CCCn1c2ccccc2c2cnn(CC(=O)NC3CCCCC3)c(=O)c21
    8%	-17%	x	x	-11%	x	-9%	x
COc1ccc(C2OC(=O)CC2C(=O)NCc2ccc(Cl)cc2)cc1OC (centres undefined)
    9%	33%[activator]	u	u	-1%	x	x	x
COc1cccc(/C=c2\sc3nc(-c4cccs4)nn3c2=O)c1OC
    11%	-10%	10%	1%	3%	u	6%	-6.3%
CCc1cc(CNC(=O)c2ccc(OC3CCN(CCc4ccccc4)CC3)cc2)on1
    -18%	-12%	x	x	-2%	x	-4%	x
CCOCCOC(=O)c1[nH]c2c(c1C)C(=O)CC(c1ccc(OC)c(OC)c1)C2 (centres undefined)
    2%	22µM*	u	u	1%	x	23%	x
CCOC(=O)c1ccccc1NC(=O)COC(=O)c1ccccc1C(=O)N(C)c1ccccc1
    4%	-14%	-14%	0%	-1%	x	x	x
COc1cc2c(c(O)c1OC)-c1c(cc(OC)c(OC)c1OC)C[C@@H](C)[C@@H](C)C2
    0%	-26%	x	x	-5%	x	-37%	x
CCOc1ccc(NC(=O)CSc2nnc(-c3ccncc3)n2CC2CCCO2)cc1 (centres undefined)
    19%	8%	0%	-8%	0%	-7%	4%	7.0%
CCN(CC)CCN1C(=O)C(O)=C(C(C)=O)C1c1ccc(OC)c(OC)c1 (centres undefined)
    5%	-3%	12%	-13%	-4%	-8%	7%	-3.0%
CCCCN(C(=O)CCC(=O)Nc1cc(C)on1)C(C(=O)NC1CCCC1)c1ccccc1OCC (centres undefined)
    8%	-11%	u	u	-1%	x	9%	x
CC(=O)Nc1ccc(NC(=O)C(Sc2ccccc2)c2ccccc2)cc1 (centres undefined)
    14%	-19%	-4%[46.1 µM]	-10%[46.1 µM]	1%	x	8%	x
Cn1c(=O)[nH]c(=O)c2c1nc1n(CCO)c(-c3ccccc3)cn21
    x	-14%	18%[46.1 µM]	x	x	-3%	x	0.1%
COc1ccc(CNC(=O)CCSCc2ccc(C)cc2)cc1
    -4%	4%	u	3%	-7%	x	x	x
CCOC(=O)c1ccc(NC(=O)C(=O)NCc2ccncc2)cc1
    12%	-10%	4%	-7%	-4%	7%	14%	7.3%
Cc1ccc([N+](=O)[O-])cc1NC(=O)Nc1cccc(F)c1
    -6%	28µM*	x	x	10%	x	6%	x
COc1ccc(C2C(C(=O)c3sc(C)nc3C)=C(O)C(=O)N2CCN(C)C)cc1 (centres undefined)
    13%	-3%	-3%	21%	2%	-13%	-14%	1.4%
COc1cccc(N2CCN(S(=O)(=O)c3ccc4c(c3)NC(=O)CS4)CC2)c1
    11%	u	x	x	0%	x	13%	x
CCC1(C(=O)OC)NC(c2ccccc2OC)C2C(=O)N(C)C(=O)C21 (centres undefined)
    26%	-13%	1%	6%	2%	-1%	5%	2.0%
Nc1nc(NCC2CCCO2)nc(Nc2cccc(F)c2)c1[N+](=O)[O-] (centres undefined)
    0%	-20%	x	x	0%	x	6%	x
CN(CC(=O)NC1CCCCCC1)S(=O)(=O)c1ccc2c(c1)n(C)c(=O)c(=O)n2C
    5%	-29%	x	x	1%	12%	7%	-2.1%
CC(Sc1sc(=S)sc1SC(C)C(=O)O)C(=O)O (centres undefined)
    -5%	-10%	11%	20%	2%	-2%	5%	-5.7%
CCN(CC)c1ccc(NC(=O)Cn2ncc3c(C)n(Cc4ccccc4F)c(C)c3c2=O)c(C)c1
    2%	-12%&1%	9%[46.1 µM]	11%[46.1 µM]	13%	u	1%	-1.7%&-2.9%
COc1ccc(CN2CCNC(=O)C2CC(=O)N2CCCN(C(C)=O)CC2)c(OC)c1 (centres undefined)
    -1%	66%[activator]	x	x	7%	x	-14%	x
CC(C)c1cc(C(F)(F)F)n2nc(C(=O)O)cc2n1
    7%	-8%	0%	5%	-2%	-3%	8%	-1.6%
Cc1ccc(S(=O)(=O)N2CCCC2CNC(=O)c2ccc3c(c2)OCO3)cc1 (centres undefined)
    -10%	3%	-29%	u	-3%	x	x	x
COc1cc(C(=O)O/N=C(\N)c2ccc([N+](=O)[O-])cc2)cc(OC)c1OC
    4%	-24%	-23%	-4%	0%	13%	0%	-5.8%
Cc1ccc(C(=O)Nc2ccc(F)cc2F)o1
    -11%	48%[activator]	1%	u	-4%	-6%	-8%	3.0%

5 compounds drawn at random from those above, as already listed:
Sequence of screens: RE007 growth inh	StopGo reporter	Lassa entry inh	MARV entry inh	SARS PLpro yeast	Cruzain inh noDet	NS1 function inh	Cruzain inh Det
Cc1ccc(C(=O)Nc2ccc(F)cc2F)o1
    -11%	48%[activator]	1%	u	-4%	-6%	-8%	3.0%
CCC1(C(=O)OC)NC(c2ccccc2OC)C2C(=O)N(C)C(=O)C21 (centres undefined)
    26%	-13%	1%	6%	2%	-1%	5%	2.0%
CC(C)c1cc(C(F)(F)F)n2nc(C(=O)O)cc2n1
    7%	-8%	0%	5%	-2%	-3%	8%	-1.6%
Cc1ccc(S(=O)(=O)N2CCCC2CNC(=O)c2ccc3c(c2)OCO3)cc1 (centres undefined)
    -10%	3%	-29%	u	-3%	x	x	x
CN(CC(=O)NC1CCCCCC1)S(=O)(=O)c1ccc2c(c1)n(C)c(=O)c(=O)n2C
    5%	-29%	x	x	1%	12%	7%	-2.1%

(next part)
Sequence of screens: RE007 growth inh	StopGo reporter	Lassa entry inh	MARV entry inh	SARS PLpro yeast	Cruzain inh noDet	NS1 function inh	Cruzain inh Det
CCc1ccccc1NC(=O)Cn1cccc1C1=NC(c2ccccc2)CO1 (centres undefined)
    -18%	-26%	-1%	u	6%	-15%	29%	-2.3%
CCN(CC)CCCN1C(=O)C(=O)/C(=C(/O)c2ccc(C)cc2)C1c1ccccn1 (centres undefined)
    -15%	-3%	-20%	-6%	x	-10%	u	-1.6%
NC(=O)c1ccccc1NC(=O)c1cc(S(=O)(=O)N2CCCCC2)ccc1N1CCOCC1
    -4%	-1%	11%	u	-11%	x	x	x
C/C(=N\OCC(=O)Nn1c(C)nc2ccccc2c1=O)c1ccccc1
    -19%	-12%	-3%	-19%	12%	2%	2%	-1.5%
Cc1cccc(NC(=O)CCS(=O)(=O)c2ccc(Cl)cc2)c1
    24%	-21%	x	x	1%	x	-5%	x
Cc1cc2cc3c(cc2nc1SCc1ccc(C(=O)O)cc1)OCCO3
    -3%	0%	-2%	u	-2%	-5%	-2%	-5.5%
O=C(NNS(=O)(=O)c1ccc(F)cc1)C1CCN(Cc2cccc(F)c2)CC1
    -9%	-2%	1%	4%	0%	x	x	x
CC(=O)Nc1ccc(NC(=O)CN2C(=O)COc3ccc(S(=O)(=O)N4CCOCC4)cc32)cc1
    6%	-6%	1%[46.1 µM]	3%[46.1 µM]	-1%	x	9%	x
Cc1c(C(=O)NCc2cccc(Cl)c2)sc2nc[nH]c(=O)c12
    x	5%	-2%[46.1 µM]	x	x	-1%	x	-3.9%
CCOC(=O)N1CCC(NC(=O)c2ccc(CS(=O)c3ccc(Cl)cc3)o2)CC1 (centres undefined)
    13%	-12%	-17%[46.1 µM]	-10%[46.1 µM]	0%	x	8%	x

Compound profiles, as listed above:
`CCOC(=O)N1CCC(NC(=O)c2ccc(CS(=O)c3ccc(Cl)cc3)o2)CC1` (centres undefined) in the list: RE007 growth inh: 13%; StopGo reporter: -12%; Lassa entry inh: -17%[46.1 µM]; MARV entry inh: -10%[46.1 µM]; SARS PLpro yeast: 0%; Cruzain inh noDet: x; NS1 function inh: 8%; Cruzain inh Det: x
`Cc1cccc(NC(=O)CCS(=O)(=O)c2ccc(Cl)cc2)c1` in the list: RE007 growth inh: 24%; StopGo reporter: -21%; Lassa entry inh: x; MARV entry inh: x; SARS PLpro yeast: 1%; Cruzain inh noDet: x; NS1 function inh: -5%; Cruzain inh Det: x

Carrying on:
Sequence of screens: RE007 growth inh	StopGo reporter	Lassa entry inh	MARV entry inh	SARS PLpro yeast	Cruzain inh noDet	NS1 function inh	Cruzain inh Det
CCn1c(O)c(N=NC(=O)c2cccc(S(=O)(=O)N3CCCCC3)c2)c2ccccc21
    9%	-5%	u	u	-16%	5%	9%	-3.7%
O=C(Nc1ncccc1O)c1cccc(S(=O)(=O)N2CCc3ccccc32)c1
    -5%	21%	-8%	-26%	-18%	-6%	-204%	-2.9%
Nc1nonc1-n1nnc(C(=O)N/N=C/c2cc(Br)cs2)c1-c1ccccc1
    1%	-22%	-19%[46.1 µM]	5.6µM*	-1%	x	4%	x
CC(=O)Nc1cccc(Oc2ncnc3scc(-c4ccccc4)c23)c1
    -10%	u	u	u	-17%	u	-5%	-7.7%
CC(C)c1nc(CNC(=O)CC2C(=O)NCCN2Cc2ccoc2)cs1 (centres undefined)
    18%	-7%	-4%	4%[46.1 µM]	-2%	x	1%	x
O=C(COC(=O)c1ccc(F)cc1)NCCCc1ccccc1
    2%	-20%	x	x	0%	x	-10%	x
CN1C(C(=O)Nc2ccc(OC(F)(F)F)cc2)=CC(c2cccs2)=NS1(=O)=O
    4%	-2%&-19%	4%[46.1 µM]	-15%&-15%[46.1 µM]	-2%	-6%	-4%	-3.4%
O=C1NCCNC1(c1c[nH]c2ccccc12)C(F)(F)F (centres undefined)
    0%	-25%	x	x	0%	4%	0%	0.2%
COc1ccc(/C=C/C(=O)O)cc1Cl
    -2%	0%	6%	6%	1%	x	-4%	x
